From PubChem
2A StopGo – High Throughput Screening for Foot and Mouth Disease Virus Antivirals. AID 1159524, 2015. Potency, µM (titrated, usually from 57.9 µM), for the others: at the top dose signal change, negative = less light. 1.2% of 410,000 active. human cells with a luciferase reporter of 2A StopGo recoding; control for the full effect not named in the record; active = well fitted falling curve with a large enough effect; inconclusive = small, poorly fitted or top-dose-only effect; inactive = no such curve, though single readings can be large or run the other way; tested in HEK293T cells; further: on the % scale 0 is the no-effect control and ±100 the full control effect; nearly all actives have a fitted effect of over 45% in size; luciferase light after 4 h
Lassa entry inh – qHTS for Inhibitors of binding or entry into cells for Lassa Virus; Lassa virus pseudotype entry inhibition, cell reporter; control for the full effect not named in the record; Potency, µM (titrated, usually from 37.9 µM), inactives show at the top dose activity change, negative = inhibition, actives largely listed as inhibitors; 1.2% of 300,000 active; active means well fitted inhibition curve with a large enough effect; inconclusive means small, poorly fitted or top-dose-only effect, or effect the other way; inactive means flat fitted curve, though single readings scatter; tested in HEK293 cells; further: on the % scale 0 is the no-effect control and ±100 the full control effect; nearly all actives have a fitted effect of over 50% in size; luciferase read-out
MARV entry inh – qHTS for inhibitors of binding or entry into cells for Marburg Virus. Marburg virus pseudotyped entry inhibition, cell reporter; control for the full effect not named in the record; about a third of the inactives were read at about 46 µM. Potency, µM (highest dose often 37.8 µM), inactives show top-dose activity change, negative = inhibition, most hits filed as inhibitors. 1.8% of 300,000 active. AID 540276, 2011; active = well fitted inhibition curve with a large enough effect; inconclusive = small, poorly fitted or top-dose-only effect, or effect the other way; inactive = flat fitted curve, though single readings scatter; tested in HEK293 cells; about a fifth of its hits are not listed in these tables; further: on the % scale 0 is the no-effect control and ±100 the full control effect; luciferase read-out
RE007 growth inh – qHTS Assay for Inhibitors of the HIV-1 protein Vpr. S. pombe RE007 Vpr strain, BacTiter-Glo ATP luminescence, 24 h; control for the full effect not named in the record. Potency, µM (series often up to 92.2 µM), without a hit: at the highest dose activity change, negative = less growth. 0.21% of 360,000 active. AID 651644, 2012; active = well fitted falling curve with a large enough effect; inconclusive = small, poorly fitted or top-dose-only effect; inactive = no such curve, though single readings can be large or run the other way;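 further: on the % scale 0 is the no-effect control and ±100 the full control effect; nearly all actives have a fitted effect of over 50% in size; the assay follows cell death caused by Vpr and the record does not say whether a fall means rescue or toxicity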
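Fission yeast strain RE007, carrying one chromosomally integrated HIV-1 vpr copy, was seeded at OD 0.01 in PMG+AL medium with 23 nL pinned compound. After 24 h at 30 °C and 99% humidity, viability was read by BacTiter-Glo luminescence.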
SARS PLP yeast – qHTS of Yeast-based Assay for SARS-CoV PLP; AID 485353, 2010; 0.19% of 330,000 active; Potency, µM (titrated, usually from 32.9 µM), for inactives: at the highest dose activity, positive = growth rescue; S. cerevisiae expressing SARS-CoV PLpro, growth rescue; control for the full effect not named in the record; active means well fitted rising curve with a large enough effect; inconclusive means small, poorly fitted or top-dose-only effect; inactive means no such curve, though single readings can be large or run the other way; further: 0% is about no effect; nearly all actives have a fitted effect of over 55% in size; growth read by luminescence after 48 h
Cruzain inh Det – qHTS Assay for Promiscuous and Specific Inhibitors of Cruzain (with detergent). Cruzipain (Trypanosoma cruzi), P25779. Potency, µM, without a hit: max response, negative = inhibition, hits mostly inhibitors. 0.43% of 200,000 active. purified cruzain, Z-FR-AMC fluorescence, 0.01% Triton. AID 1478, 2009;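 further: plate controls were neutral wells for no effect and buffer without enzyme for full effect; nearly all actives have a fitted effect of over 40% in size; top concentration of the series not given in the record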
Target sequence (P25779 123-467 limits assumed): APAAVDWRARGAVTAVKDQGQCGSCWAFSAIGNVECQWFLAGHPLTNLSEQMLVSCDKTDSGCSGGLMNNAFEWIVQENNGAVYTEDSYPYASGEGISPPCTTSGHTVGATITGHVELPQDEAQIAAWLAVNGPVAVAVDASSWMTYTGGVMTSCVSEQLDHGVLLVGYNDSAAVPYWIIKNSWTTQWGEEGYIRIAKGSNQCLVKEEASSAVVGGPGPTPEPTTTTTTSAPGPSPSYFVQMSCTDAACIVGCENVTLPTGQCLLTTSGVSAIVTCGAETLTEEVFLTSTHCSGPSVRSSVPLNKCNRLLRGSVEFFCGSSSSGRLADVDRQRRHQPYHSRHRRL
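Sodium acetate buffer (100 mM, pH 5.5) containing 5 mM DTT and 0.01% Triton X-100 hosted 1.5 nM cruzain and test compound for 15 min at room temperature. Cleavage of 2 uM Z-FR-AMC was then tracked by fluorescence.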
NS1 inh – qHTS Assay for Inhibitors of Influenza NS1 Protein Function. Potency, µM (doses to about 46.1 µM), without a hit: top-dose activity, positive = more growth. AID 2326, 2010. S. cerevisiae slowed by influenza A NS1, growth recovery by OD600. 0.4% of 270,000 active; active means well fitted rising curve with a large enough effect; inconclusive means small, poorly fitted or top-dose-only effect; inactive means no such curve, though single readings can be large or run the other way; further: nearly all actives have a fitted effect of over 50% in size
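Growth recovery, yeast-based: influenza A NS1 expressed in S. cerevisiae causes slow growth, and suppressors are detected by OD600. The parent strain without NS1 is used as positive control.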
Cruzain inh noDet – qHTS Assay for Promiscuous and Specific Inhibitors of Cruzain (without detergent) | Cruzipain (Trypanosoma cruzi), P25779 | purified cruzain, Z-FR-AMC fluorescence, no detergent | Potency, µM, inactives show max response, negative = inhibition, actives largely listed as inhibitors | 2.3% of 200,000 active | AID 1476, 2009;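 further: plate controls were enzyme without inhibitor for no effect and buffer without enzyme for full effect; nearly all actives have a fitted effect of over 40% in size; top concentration of the series not given in the record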
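Purified cruzain at 1.5 nM, pre-incubated 15 min with compound at room temperature in 100 mM sodium acetate pH 5.5, 5 mM DTT, 0.00005% Triton X-100. Reaction started with 2 uM Z-FR-AMC; AMC fluorescence increase over 60 s gives rate.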
* marks the source's active call; other numbers are inactive results; u = inconclusive; x = not tested or not shown; & = joins results of further samples; [ ] = remark or other dose. Unless noted, the call rests on the fitted dose curve; in most records, active means well fitted curve in the direction sought with a large enough effect; inconclusive means small, poorly fitted or top-dose-only effect, or another doubt; inactive means no such curve, though single readings can be large; an effect the other way counts as inactive or inconclusive. Potency means the concentration at half of the fitted maximal effect.

SMILES	2A StopGo	Lassa entry inh	MARV entry inh	RE007 growth inh	SARS PLP yeast	Cruzain inh Det	NS1 inh	Cruzain inh noDet
CCOC(=O)CCn1nc(-c2ccccc2)cc1N	29%	10%	12%[46.1 µM]	-15%	5%	3.9%	4%	2%
COc1ccc(CCn2c(=N)c(C(=O)N3CCN(C)CC3)cc3c(=O)n4ccccc4nc32)cc1	-6%	0%	u	-7%	4%	-4.2%	-7%	-23%
CC(C)(C)c1cc(C(=O)NNc2cc(C(F)(F)F)ccc2Cl)n(Cc2ccccc2)n1	u	u	u	-12%	-2%	x	2%	x
Cc1cc(Cl)c2oc(C(=O)N(C)CCCN3CCOCC3)c(C)c2c1	-13%	x	x	-8%	-4%	x	-2%	x
Cc1ccn2c(CNCCCn3cccn3)c(C(=O)N3CCCCCC3)nc2c1	1%	4%	40%[46.1 µM]	-10%	1%	x	2%	x
C/C(=N/NC(=O)CNC(=O)c1ccc2c(c1)OCO2)c1ccc2c(c1)CCCC2	-15%	3%	u	2%	1%	x	x	x
O=C(Cc1cccs1)N1CCC(c2nc3c(nnn3Cc3ccc(F)cc3)c(=O)[nH]2)CC1	-13%	-9%	-6%&-10%	9%	4%	1.9%	-12%	u
CCC(C(=O)OCC(=O)Nc1ccc2[nH]c(=O)[nH]c2c1)c1ccccc1 (stereo not given)	-28%	1%	-20%	-4%	x	x	x	x
CCS(=O)(=O)Nc1cccc(C2=NN(S(=O)(=O)c3ccccc3)C(c3cccs3)C2)c1 (stereo not given)	13%	-14%	u	-8%	5%	0.2%	10µM*	-11%
O=C1CCNc2c(Cl)cc(Cl)cc21	5%	1%	-4%[46.1 µM]	14%	0%	x	2%	x
CCOC(=O)c1c(C)[nH]c(C)c1S(=O)(=O)N(C)CC(=O)Nc1ccccc1	18%	x	x	-4%	8%	x	8%	x
CCNc1nc(NCC)nc(OCCOC(C)=O)n1	-3%	20%	13%	-7%	-18%	-2.4%	12%	-12%
COc1ccc(-c2cc(C(=O)NCCc3ccc(S(N)(=O)=O)cc3)c3ccccc3n2)cc1	33%[activator]	5%	-14%[46.1 µM]	17%	0%	x	x	x
Cc1cccc(NC(=S)NC(C)C(c2cccs2)N2CCN(C)CC2)c1C (stereo not given)	-11%	x	x	-3%	1%	x	-8%	x
Cc1cc2ncc(-c3ccc(Cl)cc3)c(N)n2n1	13%	x	x	-8%	-18%	-3.8%	-32%	9%
COc1ccc(-c2coc3c(C)c4oc(=O)c(CC(=O)O)c(C)c4cc23)cc1	-7%	19%	-12%	7%	0%	x	-3%	x
CC(C)(C)Cc1nnc(NC(=O)c2cc(-c3ccccc3)nc3ccccc23)s1	-29%	-14%	-13%	5%	-1%	-6.7%	9%	u
Cc1ccc(N2C(=O)CS(=O)(=O)C23C(=O)Nc2ccccc23)cc1C (stereo not given)	-30%	2%[46.1 µM]	x	x	x	-4.4%	x	-15%
CC1CN(c2nnc(-c3ccccc3)c3ccccc23)CC(C)O1 (stereo not given)	-10%	-3%	-3%[46.1 µM]	18%	-1%	x	-1%	x
O=S(=O)(NCCNS(=O)(=O)c1cccs1)c1cccs1	28%	4%	15%	4%	-5%	3.1%	-1%	-2%
O=C(CN1CCc2ccccc21)Nc1ccc2c(c1)OCO2	59%[activator]	5%	11%[46.1 µM]	3%	8%	-1.8%	5%	13µM*
CN(C(=O)c1ccccc1[N+](=O)[O-])c1ccccc1C(=O)NCc1ccccc1	-10%	25%	4%	17%	4%	x	11%	x
CCc1ccc(NC(=O)N2CCC(c3ccccc3)C2)cc1 (stereo not given)	30%	u	u	9%	3%	x	x	x
CC1(c2ccc(Cl)c(Cl)c2)NC(=S)N2C1NC(=S)N2c1ccccc1 (stereo not given)	29%	-3%	-7%	2%	6%	-3.9%	7%	-10%
Clc1ccc(/C=N\Nc2ccccc2)cc1	44%[activator]	x	x	4%	0%	x	-7%	x
CCCCNC(=O)c1cn(CC)c2cc(N3CCN(C(=O)c4ccco4)CC3)c(F)cc2c1=O	u	x	x	5%	-5%	x	7%	x
Cc1ccc(S(=O)(=O)/N=C(/Nc2ccc(F)cc2F)c2ccc(F)cc2)cc1	12%	x	x	7%	6%	x	9%	x
O=C(NCc1ccc2c(c1)CCN2C(=O)c1ccncc1)c1cccc(Cl)c1	-23%	-17%[46.1 µM]	x	x	x	-1.9%	x	5%
O=C(Nc1ccccc1)c1ccc(NCCN2C(=O)CCC2=O)c([N+](=O)[O-])c1	-19%	-2%	1%[46.1 µM]	-3%	-1%	x	-1%	x
CCN(c1ccccc1)S(=O)(=O)c1ccc(C(=O)NCc2ccccn2)cc1	u	u	-1%	0%	0%	x	x	x
CCn1c(=O)c2cc(C(=O)NC3CCC(C)CC3)sc2c2ccccc21 (stereo not given)	-3%	10%[46.1 µM]	29%[46.1 µM]	x	x	2.5%	x	-7%
COc1ccc(-c2noc(-c3ccc(NCc4cccnc4)c([N+](=O)[O-])c3)n2)cc1	-23%	10%[46.1 µM]	15%[46.1 µM]	x	x	-2.1%	x	-2%
CCCC(=O)c1cc(F)c(N2CCN(CCC#N)CC2)cc1C	-2%	18%	20%	-4%	2%	-0.3%	-12%	-5%
CCOc1ccccc1NC(=S)N(CCCN1CCOCC1)Cc1cn(C)c2ccccc12	-16%	u	u	-3%	3%	1.8%	-3%	-3%
Cc1ccc(N(C)C(=O)C2CCCN2S(=O)(=O)c2cccc3nsnc23)cc1 (stereo not given)	4%	u	11%[46.1 µM]	-8%	0%	x	-6%	x
COc1ccc(C(=O)Nc2ccc3nc(C)sc3c2)cc1OC	44%[activator]	21%	-1%[46.1 µM]	u	11%	x	x	x
Cc1ccccc1NC(=O)Cn1c(=O)n(Cc2ccc3c(c2)OCO3)c(=O)c2ccc(C(=O)NC3CCCCC3)cc21	-12%	6%[46.1 µM]	x	x	x	-1.3%	x	-14%
CCCCCCn1c(C(C)O)nc2ccccc21 (stereo not given)	-17%	-7%	-12%	-4%	4%	3.3%	-2%	1%
CC1Sc2ccc(S(=O)(=O)NCCc3ccc(Cl)cc3)cc2NC1=O (stereo not given)	50%[activator]	x	x	-11%	2%	x	3%	x
O=C(Nc1cccn(Cc2c(F)cccc2Cl)c1=O)NC1CCCCC1	-4%	x	x	-9%	0%	x	-6%	x
O=C(COC(=O)c1ccc(S(=O)(=O)N2CCCCC2)cc1)Nc1ccccc1Cl	-20%	-4%	9%	-2%	-9%	x	x	x
O=C(c1ccc(F)cc1)N1CCN(c2ccccn2)CC1	-1%	4%[46.1 µM]	3%[46.1 µM]	-6%	4%	x	1%	x
O=C(Nc1ccc(Br)cc1Br)C1CC(=O)N(Cc2ccccc2)C1 (stereo not given)	-20%	-19%	15%	0%	2%	x	-4%	x
CCC(C)N(C(=O)Cn1nc(C)c([N+](=O)[O-])c1C)C1CCS(=O)(=O)C1 (stereo not given)	-20%	0%	23%	u	5%	x	x	x
Oc1ccc2ccccc2c1C=NCc1cn2ccsc2n1	x	-17%	-15%	-18%	-1%	1.9%	-55%	-4%
O=C(COc1ccccc1)Nc1nonc1NC(=O)COc1ccccc1	5%	8%	9%	5%	-3%	2.9%	-1%	u
O=C(c1ccc(N2CCC3(CC2)OCCO3)c([N+](=O)[O-])c1)N1CCOCC1	38%[activator]	18%	1%	19%	2%	x	x	x
Cc1cn2c(nc1=O)OC1CC2OC1CO (stereo not given)	-8%	x	x	-6%	2%	x	2%	x
CC1(C)CC(=O)c2cnc(N3CCc4ccccc4C3)nc2C1	x	u	16%	-6%	-7%	-3.7%	0%	-1%
CCOc1ccccc1Oc1c(C)oc2cc(OC(=O)N3CCOCC3)ccc2c1=O	-13%	x	-3%	-1%	-4%	-2.2%	-1%	8%
C=CCNC(=O)N1CCC(c2nc3ccccc3s2)CC1	5%	12%[46.1 µM]	u	3%	1%	x	-2%	x
COc1ccc(-n2nnnc2SCC(=O)Nc2nnc(C)s2)cc1OC	x	10%	13%	-2%	9%	2.6%	4%	-10%
Cc1cc(C)c(S(=O)(=O)NCCc2cc3ccc(C)c(C)c3[nH]c2=O)c(C)c1	14%&-15%	u	u	2%	-1%	-0.9%	13%	2%
CSCCC(NC(=O)c1ccc(Cl)cc1)C(=O)OCC(=O)Nc1ccc(C#N)cc1 (stereo not given)	-29%	1%	u	23%	-4%	u	-20%	-28%
CN1C(=O)[C@H]2[C@@H](C3CC3)N3C(=O)CN(Cc4ccccn4)C(=O)[C@@]3(Cc3ccccc3)[C@H]2C1=O	-9%	x	x	4%	-7%	x	-15%	x
COc1ccc(CNC(=O)CCC(=O)N2CC(C)Oc3ccccc32)cc1 (stereo not given)	-9%	x	x	11%	-4%	x	10%	x
CCC1CCCCN1CCCNC(=O)c1ccc2c(c1)NC(=O)CN2C (stereo not given)	-1%	x	x	-17%	27%	x	2%	x
CC(C)NC1(C(N)=O)CCN(Cc2ccccc2)CC1	-3%	3%[46.1 µM]	8%[46.1 µM]	8%	x	-5.1%	17%	-3%
Cc1ccccc1NC(=O)c1sc(NC(=O)C2CC2)nc1C	30%[activator]	-24%	-17%	8%	4%	x	14%	x
CCOC(=O)Nc1cccc(NC(=O)c2cc(OC)cc(OC)c2)c1	-24%	-17%	-1%	-18%	-9%	-3.1%	-27%	-16%
Additional compounds:
SMILES	2A StopGo	Lassa entry inh	MARV entry inh	RE007 growth inh	SARS PLP yeast	Cruzain inh Det	NS1 inh	Cruzain inh noDet
Oc1cccnc1CCc1ccccc1	26%	10%[46.1 µM]	1%[46.1 µM]	2%	-1%	x	-5%	x
COc1ccc(N2CCN(S(=O)(=O)CCNC(=O)C3CCCCC3)CC2)cc1	-17%	x	x	-5%	3%	x	3%	x
COc1ccc(F)cc1S(=O)(=O)Nc1ccc(C)cc1	24%	-10%	u	11%	-1%	-4.0%	-19%	10%
CS(=O)(=O)c1ccc(NC(=O)CCN2C(=O)C3CC=CCC3C2=O)cc1 (stereo not given)	-22%	15%	0%	-5%	u	x	x	x
